VACV Venus inh = inhibitors of vaccinia virus (Venus reporter). Vaccinia virus Venus reporter expression, fluorescence. Potency, µM (series often up to 36.5 µM), for inactives: top-dose activity change, negative = inhibition, usual class: inhibitors. 330,000 compounds, 0.46% hits. AID 720580; active means well fitted inhibition curve with a large enough effect; inconclusive means small, poorly fitted or top-dose-only effect; inactive means no such curve, though single readings can be large or run the other way; tested in A549 cells; note: nearly all actives have a fitted effect of over 30% in size; inactives centre near -10
VACV mCherry inh = inhibitors of vaccinia virus infection (mCherry reporter signal) | 310,000 compounds, 0.63% hits | Potency, µM (doses to about 36.5 µM), for the others: at the highest dose activity change, negative = inhibition, hits mostly inhibitors | Vaccinia virus mCherry reporter infection, fluorescence; about a quarter of the inactives have no number; active = well fitted inhibition curve with a large enough effect; inconclusive = small, poorly fitted or top-dose-only effect; inactive = no such curve, though single readings can be large or run the other way; tested in A549 cells; note: nearly all actives have a fitted effect of over 35% in size; inactives centre near -10
* = called active by the depositor; i = inactive; u = inconclusive; x = no result given; [ ] = another dose, or the depositor's remark. % is set by controls: 0 for no effect and ±100 for the full control effect; potency is the fitted concentration of half-maximal effect.

The first 17 entries (preview)
SMILES	VACV Venus inh	VACV mCherry inh
CCS(=O)(=O)N1CC(=O)N(c2ccc(Cl)cc2)C(C)(C(=O)NC2CCCCCC2)C1 (centres undefined)	-10%	-11%
O=S1(=O)CCN(C(CO)c2ccccc2)CC1 (centres undefined)	5%	i
COc1ccccc1OC(C)C(=O)Nc1ccc2c(c1)OCCO2 (centres undefined)	-8%	u
COc1ccc(OC)c(S(N)(=O)=O)c1	-5%	-2%
CC(=O)c1cc2c(=O)c3cc(C)ccc3oc2nc1C	-24%	x
COc1ccc(OC)c(C(=O)c2ccccc2)c1	-10%	-3%
FC(F)(F)c1cnc(C(c2ccccn2)c2ncn[nH]2)c(Cl)c1 (centres undefined)	u	u
CNC(=O)C1CN(C(=O)c2cccc(S(=O)(=O)N3CCc4ccccc43)c2)c2ccccc2O1 (centres undefined)	u	u
CCSc1nc2ccccc2c(=O)n1C1CCOC(C)(C)C1 (centres undefined)	-15%	-25%
Cc1c(NC(=O)CCSc2ccc(Cl)cc2)c(=O)n(-c2ccccc2)n1C	3%	x
CCc1ccc(C(C)NC(=O)C2(C)CC2(Br)Br)cc1 (centres undefined)	-20%	-31%
Cc1cc(Br)ccc1NC(=O)CNC(=O)Cc1ccc(S(=O)(=O)N2CCOCC2)s1	-10%	-15%
Cc1nc2cc(NC(=O)Nc3ccc(N4CCOCC4)cc3)ccc2n1C	-4%	-2%
CC1(C(=O)NCc2cccc3ccccc23)CCN1Cc1ccccc1OC(F)F (centres undefined)	-7%	i
Cc1ccc(NC(=O)CN2C(=O)NC3(CCCC3)C2=O)nc1	-4%	-16%
CCCc1nnc(NC(=O)CSc2nc3ccccc3[nH]2)s1	-21%	-14%
CCOC(=O)c1c(C)nc2ccc(Cl)cc2c1-c1ccccc1	-11%	-20%

Main list (from the top)
SMILES	VACV Venus inh	VACV mCherry inh
CCS(=O)(=O)N1CC(=O)N(c2ccc(Cl)cc2)C(C)(C(=O)NC2CCCCCC2)C1 (centres undefined)	-10%	-11%
O=S1(=O)CCN(C(CO)c2ccccc2)CC1 (centres undefined)	5%	i
COc1ccccc1OC(C)C(=O)Nc1ccc2c(c1)OCCO2 (centres undefined)	-8%	u
COc1ccc(OC)c(S(N)(=O)=O)c1	-5%	-2%
CC(=O)c1cc2c(=O)c3cc(C)ccc3oc2nc1C	-24%	x
COc1ccc(OC)c(C(=O)c2ccccc2)c1	-10%	-3%
FC(F)(F)c1cnc(C(c2ccccn2)c2ncn[nH]2)c(Cl)c1 (centres undefined)	u	u
CNC(=O)C1CN(C(=O)c2cccc(S(=O)(=O)N3CCc4ccccc43)c2)c2ccccc2O1 (centres undefined)	u	u
CCSc1nc2ccccc2c(=O)n1C1CCOC(C)(C)C1 (centres undefined)	-15%	-25%
Cc1c(NC(=O)CCSc2ccc(Cl)cc2)c(=O)n(-c2ccccc2)n1C	3%	x
CCc1ccc(C(C)NC(=O)C2(C)CC2(Br)Br)cc1 (centres undefined)	-20%	-31%
Cc1cc(Br)ccc1NC(=O)CNC(=O)Cc1ccc(S(=O)(=O)N2CCOCC2)s1	-10%	-15%
Cc1nc2cc(NC(=O)Nc3ccc(N4CCOCC4)cc3)ccc2n1C	-4%	-2%
CC1(C(=O)NCc2cccc3ccccc23)CCN1Cc1ccccc1OC(F)F (centres undefined)	-7%	i
Cc1ccc(NC(=O)CN2C(=O)NC3(CCCC3)C2=O)nc1	-4%	-16%
CCCc1nnc(NC(=O)CSc2nc3ccccc3[nH]2)s1	-21%	-14%
CCOC(=O)c1c(C)nc2ccc(Cl)cc2c1-c1ccccc1	-11%	-20%
O=C(c1ccco1)N(CCC(c1ccccc1)c1ccco1)Cc1ccccc1 (centres undefined)	-13%	i
COc1ccc(CN2C[C@]3(CO)O[C@@H](CO)C[C@@H]3S2(=O)=O)cc1	3%	i
CCN(CC)CCNC(=O)Cn1ncc2c3ccccc3n(Cc3ccccc3C)c2c1=O	-20%	-20%
CN(Cc1ccccc1)C(=O)CNC(=O)Cn1cnc2ccccc2c1=O	-10%	x
COc1cc(CC(=O)NCc2ccccn2)cc(OC)c1OC	u	x
COc1ccc(C(=O)NC(C)c2ccccc2)cc1Br (centres undefined)	-15%	u
COc1ccc(N2CCN(CCNC(=O)CCN3C(=O)COc4ccccc43)CC2)cc1	0%	-1%
O=C(NC1CC1)c1cccc2c1C(=O)c1ccc(N3CCC(Cc4ccccc4)CC3)cc1S2(=O)=O	-2%	-18%
COc1ccc2nc(NC(=O)c3cccs3)sc2c1	-18%	i
CCOC(=O)C1CCN(C(=O)c2ccc(Cl)c(Cl)c2)CC1	-19%	x
O=C(NCc1ccc2c(c1)OCO2)NC12CC3CC(CC(C3)C1)C2	-16%	-9%
Cc1ccc(Cn2c(C(C)Nc3nc(-c4ccc(F)cc4)cs3)nc3cc(Cl)c(Cl)cc32)cc1 (centres undefined)	-17%	-27%
CC(OC(=O)CCCCCN=C1NS(=O)(=O)c2ccccc21)C(=O)Nc1cc(Cl)cc(Cl)c1 (centres undefined)	-7%	-18%
CCc1ccc(S(=O)(=O)c2c[nH]c3cc(OC)c(OC)cc3c2=O)cc1	-10%	-5%
COCCNC(=O)/C(C#N)=C/c1cc(C(C)C)c(OC)cc1C	-22%	-30%
COc1ccc(CNc2n[nH]c(-c3ccco3)n2)cc1OC	-6%[7.34 µM]	-7%[7.34 µM]
Cc1ccc(S(=O)(=O)Nc2cccc(C(=O)NCC(c3ccco3)N(C)C)c2)cc1F (centres undefined)	-9%	-13%
O=C(CSc1ncn[nH]1)Nc1nc(-c2ccccc2)cs1	-9%	x
Cn1nc(-c2ccccc2F)c2cc(C(=O)NCc3ccc(Cl)cc3)sc21	-22%	-28%
CCOCCCn1c(=N)c(C(=O)NC(C)c2ccccc2)cc2c(=O)n3cc(C)ccc3nc21 (centres undefined)	-6%	-4%
CCOc1ccc(-c2cc(C(=O)N/N=C/c3ccc(O)cc3)c3ccccc3n2)cc1	0%	4µM*
COc1ccccc1NC(=O)Cc1cccc2ccccc12	8%	6%
O=C(Cn1c(=O)n(Cc2ccc(F)cc2)c(=O)c2sc3ccccc3c21)NCc1ccccc1Cl	-20%	-16%
Cc1cc(C)c(OCC(=O)N(Cc2cccs2)C2CCS(=O)(=O)C2)c(C)c1 (centres undefined)	-15%	-21%
CCN(CC)c1ccc(/C=N/NC(=O)c2nnn(-c3nonc3N)c2CN(C)C2CCCCC2)cc1	u	-30%
Cc1ccccc1C(=O)NCCOc1ccccc1Cl	-16%	i
O=C(CSc1nc2c([nH]c3ccccc32)c(=O)n1-c1ccccc1)Nc1ccccc1C(F)(F)F	-29%	-22%
Cc1cccc(N2CCN(C(=O)c3cc(S(=O)(=O)N4CCCC4)cn3C)CC2)c1C	u	-17%
O=C1CCc2cc(S(=O)(=O)N3CCN(Cc4ccc5c(c4)OCO5)CC3)ccc2N1	-17%	-21%
O=C(c1ccc(Br)o1)N1CCN=C1SCc1cccc(F)c1	-12%	i
Cc1cccc(NC(=O)CSc2ncc3c(n2)-c2ccccc2N(Cc2ccc(F)cc2)S3(=O)=O)c1C	-25%	-25%
COC(=O)C1=C(c2ccc(OC(F)(F)F)cc2)C[C@@H]2CC[C@H]1N2C(=O)NCc1ccc(F)cc1	u	-2%
N#Cc1ccccc1NC(=O)CSc1cn[nH]n1	0%	-7%
Going on with the list.
SMILES	VACV Venus inh	VACV mCherry inh
Cc1cccc(C)c1NC(=O)Cn1nnc(S(=O)(=O)c2ccccc2)c1N	-7%	-7%
O=C(C1CCCO1)N(c1cccc(Cl)c1)C1C=CS(=O)(=O)C1 (centres undefined)	-16%	-24%
COc1ccccc1C(=O)NNC(=O)C(=O)NC(C)C	-15%	i
COc1cc(NC(=O)C2(C)CCCN2C(=O)C(C)C)cc(OC)c1OC (centres undefined)	6%	4%
C[C@H]1CN([C@@H](C)CO)C(=O)CCCn2nncc2CO[C@H]1CN(C)S(C)(=O)=O	-12%	-3%
Cc1ccccc1C(=O)Nc1ccccc1N1CCCCC1	1%	-8%
Cc1cc(CNC(=O)c2cc(COc3c(F)cccc3F)on2)nn1C	7%	i
Cc1ccc(N)cc1NC(=O)CN1CCOCC1	-2%	0%
COC(C)(C)[C@H](O)COc1c2ccoc2cc2oc(=O)ccc12	-3%	13%
CNCC(=O)N1CCN(c2ncc(C(F)(F)F)cc2Cl)CC1	-9%	-7%
O=C(COC(=O)c1cc(-c2ccco2)nc2ccccc12)NCc1ccccc1	-2%	-7%
C=CCNC(=O)Nc1ccc2oc(C)nc2c1	-16%	-3%
CCOc1ccccc1CNC(=O)C1CCN(c2nnc(C)c3c(C)n(-c4ccc(C)cc4)nc23)CC1	11µM*	11µM*
C/C(=N/NC(=O)CNC(=O)C(c1ccccc1)c1ccccc1)c1ccco1	0%	10%
CCC(=O)N1CCc2cc(Br)cc(S(=O)(=O)N3CCCC(C(=O)Nc4ccc(CC)cc4)C3)c21 (centres undefined)	-8%	-3%
CC1CC(C)CN(C(=O)CNS(=O)(=O)c2ccc(Br)s2)C1 (centres undefined)	-9%	i
CCOP(=O)(OCC)C(NC(=O)Nc1ccc(C)c(Cl)c1)c1ccccc1 (centres undefined)	-12%	i
O=C(COc1ccc(Cl)cc1)NCCc1csc(-c2cccc(F)c2)n1	-6%	-17%
Cc1ccccc1Oc1cc(-n2ncc(Cl)c(Cl)c2=O)ncn1	10µM*	u
CCOc1ccc(S(=O)(=O)N2CCOCC2)cc1NC(=O)CN1C(=O)NC(C)(c2ccccc2)C1=O (centres undefined)	-3%	-10%
Cc1nn(C)c(C)c1CN(C(=O)CCc1nnc(Cc2c[nH]c3ccccc23)o1)C(C)C	-12%	-2%
Cc1ccc(/C=N/NC(=O)c2ccc(NC(=O)c3ccc(Cl)cc3)cc2)o1	-15%	-11%
Cc1cccc(NC(=S)N/N=C(\c2ccccc2)C(C)C)c1	1%	-2%
O=C(Oc1ccccc1)c1ccccc1	-8%	-9%
O=C(COc1ccccc1)Nc1nnc(SCc2cc(=O)n3cc(Cl)ccc3n2)s1	-11%	-5%
O=C(COc1ccc(S(=O)(=O)N2CCOCC2)cc1)NCCN1CCOCC1	-10%	i
COc1ccc(/C=N/NC(=O)c2ccc(Cn3cc([N+](=O)[O-])cn3)o2)c(OC)c1C	3%	i
COc1ccc(Nc2nnc(SC(C(=O)Nc3ccc(OC)c(Cl)c3)c3ccccc3)s2)cc1 (centres undefined)	-24%	-24%
O=C(O)c1ccc(CSc2nc3ccccc3o2)cc1	-23%	-6%[1.46 µM]
Cc1ccc(CN2CCN(C3CCN(C(=O)Nc4ccc(C)cc4Cl)CC3)C(=O)C2=O)cc1	-11%	-9%
CCCN1C(=O)c2[nH]nc(-c3cccc(OC)c3)c2C1c1ccccn1 (centres undefined)	-7%	-7%
CCOc1ccc(CCNC(=O)CSCc2ccc(C)cc2)cc1OCC	-24%	-21%
CCOc1ccc(NC(=O)NCCN2CCN(c3cccc(C)c3C)CC2)cc1	-20%	-23%
C=CCN1C(=O)C(Cc2ccc(SC(F)F)cc2)SC1=Nc1ccc(C(=O)O)cc1 (centres undefined)	-9%	-16%
Cc1cccc(NC(=O)CSc2nc3n[nH]c(C)c3c(=N)n2-c2cccc(Cl)c2)c1	-19%	-19%
CCc1cc(=O)oc2c3c(cc(OCC(=O)NCCCn4ccnc4)c12)OC(C)(C)CC3	-3%	0%
O=C(CSc1ncn[nH]1)NCCOc1ccccc1	u	-10%[1.46 µM]
COc1ccc(NC(=O)C(NC(=O)CC2NC(=O)NC2=O)c2ccccc2)cc1 (centres undefined)	-2%	-13%
COc1ccccc1C(=O)N(NC(=O)Oc1ccccc1)C(C)(C)C	-3%	-10%
C(=C\c1ccccc1)/CN1CCN(C(CCc2ccccc2)c2nnnn2-c2ccc3c(c2)OCCO3)CC1 (centres undefined)	-12%	-2%
O=C1c2ccccc2C(=O)N1OCCOCCOCCBr	-7%	9%
CN(C)CCN(C(=O)c1ccc(S(=O)(=O)N(C)c2ccccc2)cc1)c1nc2cc3c(cc2s1)OCCO3	-18%	-12%
COc1ccc(OCCOC(=O)c2ccc(-n3cnnn3)cc2)cc1	-5%	i
CC(=O)Nc1ccc(Cl)cc1C(=O)c1ccc[nH]1	-18%	-1%
Cc1oc(-c2ccc(C(=O)NCc3ccccc3)cc2)nc1CS(=O)(=O)c1ccccc1	-29%	-27%
CN(CC(=O)Nc1cccc(F)c1)C(=O)c1sccc1-c1ccccc1	-14%	i
Cc1nc(CCNC(=O)CC2C(=O)NCCN2Cc2ccccc2)sc1C (centres undefined)	-5%	i
CC(C)(C)OC(=O)C[C@@H]1C/C=C\C[C@H](CC(=O)N[C@@H](CO)Cc2ccccc2)C(=O)N[C@H](Cc2ccccc2)COC1=O	-19%	i
Nc1nonc1-n1nnc(C(=O)N/N=C/c2ccc(Br)cc2)c1CSC1=NCCS1	u	u
COc1ccc(C(=O)C2CCCN(C(=O)c3cccnc3OC)C2)c(C)c1 (centres undefined)	-20%	i
New compounds follow.
SMILES	VACV Venus inh	VACV mCherry inh
CCc1nnc(NC(=O)CSc2nnc(CNc3cccc(Cl)c3)n2CC)s1	-6%	-12%
COc1ccc(C(=O)NN2CC(O)=C(c3nc4ccccc4n3C)C2=N)cc1OC	-13%	-17%
O=C(O)CC1c2ccccc2C=Cc2ccccc21	-9%	3%
Cc1ccc(NC(=O)CCc2c(C)nc3ncnn3c2C)cc1Cl	7%	3%
CCN(CC)CCNC(=O)c1[nH]c2ccccc2c1Sc1ccc(Cl)cc1	-24%	-12%
O=C(CSc1nc(=O)[nH]c2c1CCCC2)Nc1ccccc1C(F)(F)F	-5%[7.34 µM]	-6%[7.34 µM]
